# Screens (PubChem)
# TRPML1 agonist: qHTS for Agonists of the Human Mucolipin Transient Receptor Potential 1 (TRPML1). TRPML1-expressing cells, Ca2+ dye fluorescence, FDSS; host cell line not named in the record; reference of the full effect not given here. AID 624414, 2012. Mucolipin-1 (Homo sapiens), Q9GZU1. activation, % (test concentration not listed). 410,000 tested, 0.12% active; in the data active = activation above about 50%; inconclusive = about 30% to 50%; inactive = below about 30%; further: 0% is about no effect; the text of the record puts the active cut at 80%
#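 Agonist activity was taken from a 110 s kinetic Ca2+ dye read on the FDSS after pinning compounds onto TRPML1-DL cells. The cells were seeded at 1,500/well with Tet inducer, incubated about 16 h, then dye-loaded at room temperature.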
# D2 agonist: Beta-Arrestin HTS for Positive Allosteric Modulators of the Human D2 Dopamine Receptor: Agonists | D(2) dopamine receptor (Homo sapiens), P14416 | DiscoveRx PathHunter D2 beta-arrestin, luminescence, 90 min; 100% = 57 uM dopamine signal | activation, % (concentration not given with the values) | 360,000 tested, 0.084% active; in the data active = activation above about 40%; inconclusive = about 15% to 40%; inactive = below about 15%; further: compound concentration not given in the record; the text of the record calls up to 30% inactive
#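 DiscoveRx PathHunter D2 beta-arrestin cells (2,100/well) attached overnight, then compound-stimulated 90 min at 37 C in HBSS/10 mM HEPES/0.1% Tween-20 buffer; beta-galactosidase complementation read by luminescence after 1 h at ambient temperature. Dopamine 57 uM final (EC100) as control.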
# TRPML1 blocker: qHTS for Inhibitors of the Human Mucolipin Transient Receptor Potential 1 (TRPML1). 390,000 tested, 0.02% active. activity change, negative = inhibition, % (concentration not given with the values). Mucolipin-1 (Homo sapiens), Q9GZU1. TRPML1-inducible cells, Ca2+ dye fluorescence, FDSS; active compounds read low; inhibition of EC80 agonist-evoked calcium signal; in the data active means activity change below about -50%; inconclusive means about -30% to -50%; inactive means above about -30%;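 further: stimulus is agonist 54-4 at its EC80 concentration; on the % scale 0 is the no-effect control and ±100 the full control effect; the text of the record puts the active cut at -80%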
#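 Calcium fluorescence in TRPML1-DL cells induced overnight with Tet: a 110 s read after compound pin addition, then a 110 s antagonist read after challenge with 54-4 at 4 uM final (EC80).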
# PINK1 expr mod: A Quantitative High throughput Screen to Identify Chemical Modulators of PINK1 Expression; PINK1 immunofluorescence, high-content cytometry, 24 h; Potency, µM (top dose mostly 76.6 µM), for the others: top-dose activation (PINK1 increase), usual class: activators; 410,000 tested, 0.2% active; AID 624263, 2012; active = well fitted activation curve with a large enough effect; inconclusive = small, poorly fitted or top-dose-only effect; inactive = flat fitted curve, though single readings scatter; cell line not stated here;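 further: potency means the concentration at half of the fitted maximal effect; % of control where 0% means no effect; nearly all actives have a fitted effect of over 65% in size; a mitochondrial uncoupler was the plate control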
#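 Cells are seeded, rested 12 hours, then given compound at five concentrations or DMSO for 24 hours. After fixation, blocking and antibody staining, PINK1 amount and mitochondrial localization are scored; CCCP serves as control.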
# Six1-Eya2 blk: qHTS Assay for Inhibitors of the Six1/Eya2 Interaction; Homeobox protein SIX1 (Homo sapiens) + Protein phosphatase EYA2 (Homo sapiens), …; AlphaScreen GST-Six1/His-Eya2 binding, biochemical; active compounds read low; control for the full effect not named in the record; activity change, % (no concentration beside the values); 360,000 tested, 0.56% active; AID 651725, 2012; in the data active = activity change below about -65%; inconclusive = about -30% to -65%; inactive = above about -30%; further: on the % scale 0 is the no-effect control and ±100 the full control effect
# Target sequence (O00167 whole entry, looked up): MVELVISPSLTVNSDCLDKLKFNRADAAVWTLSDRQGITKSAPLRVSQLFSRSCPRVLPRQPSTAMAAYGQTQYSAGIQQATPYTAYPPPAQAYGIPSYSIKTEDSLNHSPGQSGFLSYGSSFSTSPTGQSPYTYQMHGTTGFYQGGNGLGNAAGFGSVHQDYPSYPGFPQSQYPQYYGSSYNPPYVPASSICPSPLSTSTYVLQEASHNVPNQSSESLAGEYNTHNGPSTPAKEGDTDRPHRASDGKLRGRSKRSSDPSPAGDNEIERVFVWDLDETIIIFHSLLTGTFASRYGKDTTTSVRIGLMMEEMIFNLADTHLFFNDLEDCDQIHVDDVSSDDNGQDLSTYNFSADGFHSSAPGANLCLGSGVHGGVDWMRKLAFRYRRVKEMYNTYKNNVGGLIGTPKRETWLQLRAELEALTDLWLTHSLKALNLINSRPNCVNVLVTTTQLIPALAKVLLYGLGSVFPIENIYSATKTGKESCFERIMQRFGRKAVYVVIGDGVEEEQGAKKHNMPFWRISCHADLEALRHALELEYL
# Target sequence (Q15475 whole entry, looked up): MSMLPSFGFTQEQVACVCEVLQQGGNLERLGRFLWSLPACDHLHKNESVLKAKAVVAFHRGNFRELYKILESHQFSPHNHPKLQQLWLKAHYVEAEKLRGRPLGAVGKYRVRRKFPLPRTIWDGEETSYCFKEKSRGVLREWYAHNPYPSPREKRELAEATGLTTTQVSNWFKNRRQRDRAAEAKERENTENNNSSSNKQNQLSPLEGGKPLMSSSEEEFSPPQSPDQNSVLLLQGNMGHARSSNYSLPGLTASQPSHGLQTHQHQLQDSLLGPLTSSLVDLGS
#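 Six1/Eya2 binding was read as AlphaScreen signal after compounds were pinned into GST-Six1 plus His-tagged Eya2 (5X stock 250/500 nM) in pH 8.0 Tris/NaCl/TCEP buffer, beads added, then incubated 1 h, 37 C, dark.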
# D2 potentiator: Beta-Arrestin HTS for Positive Allosteric Modulators of the Human D2 Dopamine Receptor: Potentiators | DiscoveRx D2 beta-arrestin cells, luminescence, 90 min; 100% = 57 uM dopamine signal | potentiation, % (no concentration beside the values) | D(2) dopamine receptor (Homo sapiens), P14416 | 360,000 tested, 0.23% active; active = potentiation of 50% or more; inconclusive = 30% to 50%; inactive = 30% or less;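 further: compound concentration not given in the record; tested on top of an EC20 dose of dopamine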
#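 PathHunter beta-arrestin assay in DiscoveRx D2 cells. Compounds were added with an EC20 of dopamine (50 nM final) for 90 min at 37 deg C. Luminescence was read 1 h after detection reagent, with 57 uM dopamine as the EC100 control.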
# The depositor's hits bear a star; ? = inconclusive; nt = not tested or not shown; [ ] = remark or other dose.
# Order of results: TRPML1 blocker, PINK1 expr mod, D2 potentiator, TRPML1 agonist, D2 agonist, Six1-Eya2 blk
> Cc1ccc(S(=O)(=O)N2CCCC2C(=O)Nn2cnnc2)cc1 (stereo unspecified)
  18, 2.4%[38.3 µM], -14, 0.8, -2.0, 9
> O=C(Nc1ccc(-c2ccco2)cc1)C1CCCN(Cc2ccc(CO)o2)C1 (stereo unspecified)
  38, 2.2%, -19, -0.4, -0.4, -13
> CCOc1ccc(Cn2c(CNS(=O)(=O)c3ccc([N+](=O)[O-])cc3)nc3cccnc32)cc1
  -7, -0.4%, nt, -0.5, nt, nt
> COc1ccc(N2CC(C(=O)NCc3ccccc3)CC2=O)cc1 (stereo unspecified)
  -20, 0.8%, 6, 0.4, -1.5, 8
> O=C(O)CC1S/C(=N/N=C/c2ccc(-c3ccccc3[N+](=O)[O-])o2)NC1=O (stereo unspecified)
  -2, -1.8%, -11, 0.4, -2.0, -5
> O=C(COc1ccc2c3c(c(=O)oc2c1)CCCC3)NCCN1CCOCC1
  3, 0.4%, -9, -0.6, -2.8, -10
> Cn1cnnc1SC(C(=O)Nc1cccc(C(F)(F)F)c1)c1ccccc1 (stereo unspecified)
  -6, 0.1%, 4, 0.6, -0.4, -1
> CCCn1c(=O)c2c(c3ccccc31)OCC(=O)N2
  3, -0.7%, 2, 0.5, -0.8, 5
> Cc1ccc(-c2nn(CCC(=O)NCC3CCCO3)c(=O)c3ccccc23)cc1 (stereo unspecified)
  11, -0.5%, -23, 0.3, -3.5, 0
> COC(=O)Nc1nnc(SCc2ccc(C)cc2)s1
  -11, -1.1%, -9, 0.1, -3.0, -3
> CCOC(=O)c1sc(NC(=O)CN2C(=O)NC3(CCC(C)CC3)C2=O)c(C(=O)OCC)c1C (stereo unspecified)
  -3, 4.1%, -2, 0.2, -3.2, 2
> Cc1ccc(N2CC(C(=O)N3CCc4ccccc43)CC2=O)cc1 (stereo unspecified)
  22, -4.2%[38.3 µM], -24, -0.3, -1.6, 3
> COc1cc(S(=O)(=O)N2CCOCC2)cc(C(=O)c2nccn2C)c1OC
  10, -0.9%[38.3 µM], -3, 0.1, -1.8, 1
> COc1ccc([N+](=O)[O-])cc1NC(=O)c1cncc(Br)c1
  5, -0.7%, -8, 0.6, -3.9, 8
> CC(=O)c1sc2nc(-c3cccs3)ccc2c1N
  -7, -4.6%, 5, 1.4, -1.2, 5
> Cc1ccc2nc3sc(C(=O)Nc4c(C)[nH]c(=O)[nH]c4=O)c(N)c3cc2c1
  31, ?, 3, 0.1, -0.2, -9
> COc1ccccc1CN(C)C(=O)CN1C(=O)c2ccccc2C1=O
  4, -0.4%, -4, 0.6, -6.1, 6
> CCCCOc1ncnc2c1[nH]c1ccc(OC)cc12
  23, ?, -10, 1.0, 6.1, 0
> Cc1ccc(S(=O)(=O)N2CCCC2)cc1C(=O)Nc1ccc(-n2cnnn2)cc1
  -16, -1.8%, 1, -0.4, 2.5, -3
> Cc1cccc(N2CCN(C(=O)C3CC(=O)N(C4CCCC4)C3)CC2)c1C (stereo unspecified)
  6, -0.4%, -8, 0.2, -2.5, 2

# Reprinted from the part before: two compounds, then new ones.
# Order of results: TRPML1 blocker, PINK1 expr mod, D2 potentiator, TRPML1 agonist, D2 agonist, Six1-Eya2 blk
> Cc1ccc(S(=O)(=O)N2CCCC2)cc1C(=O)Nc1ccc(-n2cnnn2)cc1
  -16, -1.8%, 1, -0.4, 2.5, -3
> Cc1cccc(N2CCN(C(=O)C3CC(=O)N(C4CCCC4)C3)CC2)c1C (stereo unspecified)
  6, -0.4%, -8, 0.2, -2.5, 2
> CCCCn1c(N)c(N(CCOC)C(=O)COC(=O)CNC(=O)c2ccc(Cl)c(Cl)c2)c(=O)[nH]c1=O
  9, -0.9%, 0, -0.6, -5.0, 18
> CCN(CC)C(=O)Cn1c(=O)cc(C)c2c(C)nn(-c3cccc(Cl)c3C)c21
  23, 0.4%, nt, -0.6, nt, nt
> CC1CCN(S(=O)(=O)c2ccc(NC(=O)CN3C(=O)NC(C)(c4ccccc4)C3=O)cc2)CC1 (stereo unspecified)
  8, -0.9%, -5, 1.1, -0.7, 1
> Cc1n[nH]c(C)c1S(=O)(=O)N(CC(=O)Nc1ccc(C(F)(F)F)cc1)c1ccc(C(C)C)cc1
  14, 3.0%, nt, 0.8, nt, nt
> Cc1cc(NC(=O)CS(=O)(=O)c2cn(Cc3ccccc3Cl)c3ccccc23)no1
  3, 9.3%[38.3 µM], 5, 2.8, -0.6, -9
> Cc1ccc(NC(=O)CN(C)C(=O)COc2ccc(C(=O)c3ccc(F)cc3)cc2)cc1
  -8, 7.0%, -9, 0.2, 2.2, -6
> COc1cc(NS(=O)(=O)c2ccc(Br)s2)cc(OC)c1
  4, 2.5%[38.3 µM], -7, -0.5, -2.3, -2
> CC(=O)Nc1ccc(NC(=O)C(C)OC(=O)c2ccc(C)s2)cc1 (stereo unspecified)
  -12, 0.5%, -5, 0.4, -4.0, 11
> O=C(CSc1nc2ccccc2c(=O)[nH]1)Nc1ccccc1C(F)(F)F
  -5, 0.1%, -15, 0.0, -4.4, -24
> O=C(CC(c1ccccc1)c1cc(Cl)ccc1O)NCCN1CCOCC1 (stereo unspecified)
  21, -1.8%, -19, 0.7, -0.3, 6
> Cc1ccccc1Nc1nccc(N(C)C)c1C#N
  9, 0.8%, 4, -0.7, 0.3, 1
> CN(C)c1nc(N)nc(CSc2nc3cc(Cl)ccc3o2)n1
  2, 2.1%[38.3 µM], -11, -0.6, -1.7, -2
> COc1ccc(CCNC(=O)CCCCn2c(=O)c3ccccc3n(CC(=O)Nc3c(C)cccc3C)c2=O)cc1OC
  53, 5.9%, nt, 1.1, nt, nt
> Cc1cccc(C(=O)Nc2cccc(C(=O)Nc3cc(C)ccn3)c2)c1
  28, -1.3%, 7, -0.7, -2.3, 0
> COc1ccccc1C(=O)NCc1ccc2c(c1)OCO2
  21, nt, -7, -0.5, -3.2, 0
> CN(C)CCCN1C(=O)C(=O)/C(=C(/O)c2ccncc2)C1c1cccnc1 (stereo unspecified)
  4, -2.3%[38.3 µM], 3, 4.4, 0.5, 1
> Cc1onc(-c2ccc(Cl)cc2Cl)c1C(=O)/C=C/N(C)C
  -5, -0.2%, -13, 1.3, -3.7, 1
> CCc1nc2ccc(C(=O)Nc3ccc(OC)c(OC)c3)cn2c1N(CC)CCOC
  nt, -0.1%, -3, -1.2, -2.7, -1
> O=C(CN1C(=O)COc2ccc(S(=O)(=O)N3CCOCC3)cc21)NCc1ccccn1
  -4, -0.7%, -7, -0.1, -2.7, -5
> Cc1cc(NC(=O)COC(=O)c2cccc(OCc3ccccc3)c2)no1
  -14, 5.8%[38.3 µM], 7, -0.4, 7.6, -1
> Cc1ccccc1NC(=O)Cn1cc(S(=O)(=O)c2ccccc2)c(=O)c2ccccc21
  2, 0.5%, nt, 0.2, nt, nt
> CCOc1ccc(N2CC(NC(=O)Cc3cccs3)CC2=O)cc1 (stereo unspecified)
  -1, -0.3%, nt, 0.6, nt, nt
> COc1ccc(CCNC(=O)CCc2c(C)c3cc4c(C)c(C)oc4cc3oc2=O)cc1
  6, 1.3%, nt, 0.3, nt, nt
> Cc1ccc(CNC(=O)CSc2ccc(-c3cccs3)nn2)cc1
  -1, 13%, -23, 0.0, -0.4, 5
> COc1ccc(CCN2C(=NC(=O)C(C)C)SC3CS(=O)(=O)CC32)cc1OC (stereo unspecified)
  0, -2.3%, 0, -0.4, -3.0, 3
> N=C(c1cccc([N+](=O)[O-])c1)N1CCCCCC1
  -21, -0.8%, 9, 1.9, 0.7, 7
> CCN(Cc1ccccc1)C(=O)Cn1c(=O)n(-c2ccc(Cl)cc2)c(=O)c2c(C)c(C)sc21
  13, 1.9%, nt, -0.2, nt, nt
> O=C(CNC1CCCCC1)Nc1ccc(Cl)cc1
  nt, 2.0%, -31, nt, -4.3, -8
> COc1cc2c(cc1OC)CN(C(=O)C(CCSC)NS(=O)(=O)c1ccc(C)cc1)CC2 (stereo unspecified)
  -1, 2.1%, -3, 0.5, 5.0, -3
> CCOC(=O)c1[nH]c2ccc(C)cc2c1N
  6, -4.4%[38.3 µM], 28, 0.1, 12, -4
> Cc1cnn(-c2cc(N/N=C/c3ccccc3F)ncn2)c1
  -5, 5.3%, -5, 1.3, -3.0, 8
> C/C(=N\NC(=O)C1CC1)c1ccc(OC(F)F)cc1
  15, 0.7%, 4, -0.4, -0.7, 13
> O=C(N/N=C/c1ccccc1[N+](=O)[O-])C(=O)N1CCCC1
  6, 0.8%, -22, 0.4, 5.8, 13
> Cc1ccc(CCNC(=O)C2CC(c3ccccc3C(F)(F)F)=NO2)cc1 (stereo unspecified)
  12, -0.2%, -4, 1.0, 1.4, 0
> CC(=O)CC1=NC(C)(C)Cc2ccccc21
  -15, 0.1%, -2, 0.6, -0.9, -23
> Cc1ccccc1C(=O)Nc1ccc2c(C#N)c3nc4ccccc4nc3n2c1
  23, 6.7%, 29, 3.5, 0.9, ?
> CC(C)(C)c1cc(C(C)(C)C)c2oc(=O)c(-c3nc4ccccc4[nH]3)cc2c1
  -16, 2.4%, nt, 0.2, nt, nt
> O=C(Nc1nc(-c2ccccc2)cs1)C1CCCCN1S(=O)(=O)c1ccccc1 (stereo unspecified)
  33, 1.5%[38.3 µM], 0, 1.2, 0.2, -5
> COc1ccc2ccccc2c1/C=N/NC(=O)c1cccc(Br)c1
  29, -0.4%, -42, 2.2, -4.3, -3
> Cc1ccc2cc(NC(=O)c3cccc(F)c3)ccc2n1
  33, -1.0%, -2, 0.3, 1.4, 3
> COC(=O)C1=C(C)N(c2ccc(Cl)cc2)/C(=C/c2cccs2)C1=O
  -7, 11%, -5, 0.3, 1.1, 10
> Cc1ccc(-c2cc(C(=O)N3CCN(C(=O)c4ccco4)CC3)no2)cc1
  -11, 3.3%[38.3 µM], -2, -0.1, -1.1, -2
> Cc1ccc(-c2nc(SCC(=O)NCC3CCCO3)c(-c3ccccc3)[nH]2)cc1 (stereo unspecified)
  3, 6.4%, -5, 1.1, 4.7, -13
> O=C(CCC(=O)N1CC2CCCN2c2ccccc21)NCc1ccccc1F (stereo unspecified)
  -12, 0.2%, nt, 0.7, nt, nt
> O=C(CCCCn1c(=O)c2ccccc2n(Cc2ccccc2Cl)c1=O)NCc1ccc2c(c1)OCO2
  0, -0.1%, nt, -0.5, nt, nt
> NC(c1csc(Nc2nccc(C(F)(F)F)n2)n1)C1CCCCC1 (stereo unspecified)
  nt, -1.1%, -6, 0.8, 3.5, 1
> CCOC(=O)CN1CCS(=O)(=O)CC1
  -5, -0.3%, -19, 0.5, 0.5, 0
> O=C(COC(=O)c1cccs1)NCCc1ccc(F)cc1
  7, 0.2%, -3, -0.6, 6.5, 0

# An unsorted share of the library; 1% or so of the library scored in one or more.
